Compound activity as filed in PubChem.
GLA inh pH 4.5 – alpha-galactosidase A (human) inhibition, pH 4.5; P06280; purified enzyme, 4-MU-alpha-Gal fluorescence, pH 4.5; activity change, negative = inhibition, % at 105 µM; 230,000 tested, under 10 active; AID 1467; inconclusive = small, poorly fitted or top-dose-only inhibition, or a rising curve; inactive = flat fitted curve, though single readings scatter; no compound was filed as active;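 also: 0% = full activity with enzyme and -100% = basal without enzyme; dose as in the result columns while the protocol names 77 µM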
Target sequence (P06280 whole entry, looked up): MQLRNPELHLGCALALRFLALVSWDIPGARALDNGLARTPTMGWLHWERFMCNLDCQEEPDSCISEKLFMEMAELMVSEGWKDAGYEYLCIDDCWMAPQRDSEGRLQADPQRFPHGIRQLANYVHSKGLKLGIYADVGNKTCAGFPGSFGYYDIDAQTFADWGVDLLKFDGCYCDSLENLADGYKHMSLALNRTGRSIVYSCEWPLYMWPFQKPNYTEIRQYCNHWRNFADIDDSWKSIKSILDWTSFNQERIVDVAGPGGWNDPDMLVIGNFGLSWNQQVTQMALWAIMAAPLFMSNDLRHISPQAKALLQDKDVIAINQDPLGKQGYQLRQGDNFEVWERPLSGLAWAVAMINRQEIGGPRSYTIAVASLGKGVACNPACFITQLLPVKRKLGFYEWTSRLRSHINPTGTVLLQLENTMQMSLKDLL
Rango dissoc inh – prevents RanGTP from dissociating the Rango-importin beta complex | O95149+P62826 | Biochemical FRET Rango-importin beta, RanGTP-induced dissociation | Potency, µM (series often up to 46.1 µM), without a hit: top-dose activity change, negative = inhibition | 340,000 tested, 0.071% active | AID 540253; active means falling FRET ratio curve, often poorly fitted, with flat reads before Ran was added; inconclusive means other falling curves, or compound fluorescence or quenching; inactive means flat or rising ratio curve;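 also: potency is read from the fitted curve at half-maximal effect; % of control where 0% means no effect; nearly all actives have a fitted effect of over 45% in size; -100% = wells without RanGTP and RCC1; the record marks most hits as doubtful in a second field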
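Two FRET readings bracket the reaction: one 5 min after compound meets Rango–importin beta, another 45 min after RanGTP-RCC1 (0.6 uM Ran, 0.2 uM RCC1, 2 mM GTP) is added. Only the second defines inhibition.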
miR-21 reporter – raises the signal of a miR-21 reporter | HeLa miR-21 FLuc reporter, luciferase, 48 h | Potency, µM (doses to about 38.3 µM), without a hit: at the highest dose reporter change, positive = more light | 340,000 tested, under 10 active | AID 2288; active = well fitted rising curve with a large enough effect; inconclusive = small, poorly fitted or top-dose-only effect; inactive = no such curve, though single readings can be large or run the other way;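 also: % of control where 0% means no effect; miR-21 action dims this reporter so a rising signal means less miR-21 action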
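HeLa cells stably expressing CMV-driven firefly luciferase with a downstream miR-21 binding sequence, endogenously expressing miR-21, were treated with titrations (up to about 40uM final) for 48 hours at 37 degree Celsius. Luciferase luminescence was read after lysis.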
Rango-impB inh – prevents formation of the Rango-importin beta complex; Potency, µM (doses to about 92.2 µM), for the others: at the highest dose inhibition of complex formation; Rango CFP/YFP FRET sensor + importin beta, 45 min; 340,000 tested, 0.031% active; Q14974; active = rising FRET ratio curve, often small or poorly fitted; inconclusive = mostly compound fluorescence or quenching in the first reads; inactive = flat curves in all reads;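 also: potency is read from the fitted curve at half-maximal effect; 0% = DMSO wells and 100% = buffer wells lacking importin beta; nearly all actives have a fitted effect of over 15% in size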
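Inhibition scored from the CFP 486 nm/YFP 530 nm FRET ratio 45 min after adding 0.125 microM importin beta to 50 nM Rango biosensor preincubated 5 min with compound (room temperature, PBS with DTT, Tween-20, BSA). No-importin wells as positive control.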
Starred values were filed as active, the others as inactive; ? = inconclusive; . = no result given; & = joins results of further samples. A portion of the library; count on the stated rates, not on these rows.

SMILES	GLA inh pH 4.5	Rango dissoc inh	miR-21 reporter	Rango-impB inh
COc1ccc2c(c1)c1ncn(CC3CCCO3)c(=O)c1n2C (centres undefined)	?	-5.7%	-11.1%	3.5%
Cc1cccc(NC(=O)CN2C(=O)S/C(=C\c3cccn3-c3cccc(C(=O)O)c3)C2=O)c1	1.5	?	4.7%	?
Cc1cc(C)c(C(=O)COC(=O)CN2C(=O)NC3(CCCC3)C2=O)cc1C	.	0.6%	.	-0.2%
CSc1ccccc1C(=O)N1CCCCC1	6.1	0.0%	-0.4%	3.2%
COc1ccc(C(=O)C2CCCN(S(=O)(=O)c3cccc(C)c3)C2)c(C)c1 (centres undefined)	.	30.3%	12.4%	-0.1%
Fc1ccc(/C=C2\CCCC3=C2Nc2ncnn2C3c2ccc(F)cc2)cc1 (centres undefined)	1.9	6.6%	?	-0.2%
O=C(Nc1ccccc1F)C1(c2ccccc2)CC1(Cl)Cl (centres undefined)	-6.4	2.9%	-2.7%	3.9%
Cc1nc2sccn2c1-c1nc(-c2cc3ccccc3o2)cs1	3.2	-9.7%	-15.7%	5.9%
COc1ccc(C23CC4CC(CC(C(=O)O)(C4)C2)C3)c(F)c1	.	0.6%	-2.8%	1.1%
N#Cc1cccc(C#N)c1Oc1ccc(N)cc1	3.0	-16.2%	0.7%	1.5%
Nc1c(N(Cc2ccccc2)C(=O)COc2cccc(Cl)c2)c(=O)[nH]c(=O)n1Cc1ccccc1	.	25.8%	.	-3.7%
CCNc1ccc(C(=O)OCC(=O)NCc2ccc(C)cc2)cc1[N+](=O)[O-]	5.7	3.7%	-0.9%	3.0%
N#Cc1cc[n+](CC(=O)c2ccc(NC(=O)c3ccccc3)cc2)cc1	0.3	-18.3%	-26.5%	?
COc1cc2c3nc4n(c(=O)c3n(CC(=O)N3CCCC3)c2cc1OC)CCS4	.	42.1%	.	2.9%
Cn1c(SCC(=O)NC2CC2)nnc1C(F)(F)F	-2.6	7.7%	-0.7%	-0.1%

No new results follow: an excerpt of the list.
SMILES	GLA inh pH 4.5	Rango dissoc inh	miR-21 reporter	Rango-impB inh
COc1ccc(C(=O)C2CCCN(S(=O)(=O)c3cccc(C)c3)C2)c(C)c1 (centres undefined)	.	30.3%	12.4%	-0.1%
Fc1ccc(/C=C2\CCCC3=C2Nc2ncnn2C3c2ccc(F)cc2)cc1 (centres undefined)	1.9	6.6%	?	-0.2%
O=C(Nc1ccccc1F)C1(c2ccccc2)CC1(Cl)Cl (centres undefined)	-6.4	2.9%	-2.7%	3.9%
Cc1nc2sccn2c1-c1nc(-c2cc3ccccc3o2)cs1	3.2	-9.7%	-15.7%	5.9%
COc1ccc(C23CC4CC(CC(C(=O)O)(C4)C2)C3)c(F)c1	.	0.6%	-2.8%	1.1%
N#Cc1cccc(C#N)c1Oc1ccc(N)cc1	3.0	-16.2%	0.7%	1.5%
Nc1c(N(Cc2ccccc2)C(=O)COc2cccc(Cl)c2)c(=O)[nH]c(=O)n1Cc1ccccc1	.	25.8%	.	-3.7%

The results go on.
SMILES	GLA inh pH 4.5	Rango dissoc inh	miR-21 reporter	Rango-impB inh
CCN1CCN(CCCNC(=O)C2c3ccccc3C(=O)N(c3ccc(OC)cc3)C2c2ccc(OC)cc2)CC1 (centres undefined)	-2.6	-11.0%	-8.8%	15.1%
COc1cc(/C=C(/NC(=O)c2ccccc2)C(=O)N2CCN(C)CC2)c([N+](=O)[O-])cc1OC	1.0	11.5%	-0.2%	?
CCN(CC)c1nc(N2CCOCC2)c(C#N)c2c1CN(C)CC2	-7.3	?	-11.0%	?
NNC(=O)c1ccc(CN2C(=O)c3cccc4cccc2c34)cc1	1.5	18.4µM*	-13.0%	?
CN(Cc1nc2ccccc2c(=O)[nH]1)C(=O)c1cccc(S(=O)(=O)N2CCCC2)c1	.	1.5%	.	-3.3%
Cc1ccc2[nH]c3c(=O)n(CCc4cnc[nH]4)cnc3c2c1	.	10.1%	-37.7%	0.8%
Cc1ccc(C)c(N2CCN(CCCNC(=O)Cn3cccc3C(=O)c3ccccc3)CC2)c1	-11.5	1.0%	3.7%	2.7%
OCCC#Cc1ccc(CN2CCN(Cc3ccccc3)C(CCO)C2)cc1 (centres undefined)	1.8	-5.6%	-2.7%	-0.5%
CCCSc1ccc(-c2nn(-c3ccccc3)cc2/C=C(/C#N)C(=O)NCCCOC)cc1	-5.4	-0.9%	-0.9%	-1.9%
CC(=O)c1cccc(S(=O)(=O)N2CCCC(c3nc(-c4ccc(C)o4)no3)C2)c1 (centres undefined)	-1.6	-7.6%	-12.7%	-0.6%
CN(CCC#N)C(=S)NC(=O)c1ccc(S(=O)(=O)N2CCOCC2)cc1	-5.8	0.8%	-1.0%	-8.9%
COc1ccc(CNC(=O)COC(=O)c2cccn2C)cc1	.	-16.9%	.	-0.1%
COc1ccc2[nH]cc(S(=O)(=O)c3ccc(F)cc3)c(=O)c2c1	4.3	19.2%	13.8%	0.1%
O=C(CCC(=O)NC1CCN(Cc2ccccc2)CC1)NCc1ccco1	1.3	11.2%	0.4%	-2.4%
O=C(Cc1cccs1)Nc1nnc(-c2ccncc2)s1	3.6	?	-14.9%	-0.8%
Cc1nc2ccccc2cc1OCc1ccc(Cl)cc1	-13.6	-7.6%	-13.4%	12.7%
Cc1cc(NC(=O)c2c(-c3c(Cl)cccc3Cl)noc2C)n(C)n1	-5.7	-15.1%	-0.5%	-0.7%
COc1ccc(C2(c3ccc(OC)cc3)NC(=O)N(CC(=O)NC3CCS(=O)(=O)C3)C2=O)cc1 (centres undefined)	.	9.1%	.	0.6%
COc1ccc(NC(=O)CN(C)C(=O)c2ccc3[nH]c4c(c3c2)CC(C)CC4)cc1 (centres undefined)	.	13.7%	.	1.0%
Cn1c(=O)n(C)c2cc(NC(=O)COc3ccc(F)cc3F)ccc21	.	-3.7%	16.2%	0.2%
COc1ccccc1C(=O)N/C(=C\c1cn(S(=O)(=O)N(C)C)c2ccccc12)C(=O)N1CCCC1	.	?	-1.3%	4.7%
Cc1ccc(NC(=O)Nc2nnc(CSCCOc3ccc(Cl)cc3)s2)cc1	6.9	-4.8%	-1.8%	5.7%
Cc1ccc(-c2n[nH]c(=O)c3ccccc23)cc1S(=O)(=O)NCCO	3.5	4.2%	-13.0%	-2.3%
Cc1ccc(SCC(=O)O/N=C(\N)c2ccncc2)cc1	.	-4.2%	-21.6%	-3.8%
O=C(ONC1=NCCCCC1)c1ccc(Cl)cc1	6.2	-1.6%	?	2.0%
O=C(Nc1nc(-c2cccs2)cs1)c1cccc(S(=O)(=O)N2CCCCC2)c1	-3.6	-12.7%	20.3%	0.7%
COc1ccc(C(=O)NCCc2nnc3ccc(SCC(=O)Nc4cc(C)on4)nn23)cc1	9.9	-4.3%	-2.2%	-0.8%
COCCNC(=O)c1ccc(CN2CCC(Cc3ccccc3)CC2)cc1	.	39.3%	-3.4%	-0.1%
O=C(Nc1ccc(NC(=O)c2cccs2)cc1)c1ccc(Br)o1	-2.8	-6.2%	-30.3%	-1.9%
O=c1oc2ccccc2cc1-c1nc2c(s1)CCCC2	7.2	?	-28.2%	?
O=C(CN1C(=O)NC2(CCCC2)C1=O)Nc1ccc(F)c([N+](=O)[O-])c1	.	1.8%	6.5%	-2.9%
CCCc1cc(=O)[nH]c(SCC(=O)N2c3ccccc3CC2C)n1 (centres undefined)	.	0.6%	.	0.4%
CNS(=O)(=O)c1cnccc1N1CCN(c2cccc(Cl)c2)CC1	-1.8	-8.3%	-0.2%	2.9%
CC(=O)C1=NOC2C(=O)N(c3ccc(Cl)cc3)C(=O)C12 (centres undefined)	.	-0.6%	0.7%	0.8%
CCC(C)(C)NC(=O)/C=C/c1cccs1	5.8	-13.2%	-22.7%	-3.2%
Cc1cccc(-n2c(-c3csc(C)c3)n[nH]c2=S)c1	7.1	-5.4%	1.5%	5.2%
Cc1[nH]c2ccc(S(N)(=O)=O)cc2c1C	-4.0	3.4%	2.7%	1.4%
Cc1noc(C)c1NC(=O)N(C)C[C@H]1Oc2c(NC(=O)C3CC3)cccc2C(=O)N([C@H](C)CO)C[C@@H]1C	.	13.1%	.	-1.8%
COc1ccc(OC)c(CCNC(=O)c2nn(C)c3c2CS(=O)(=O)c2ccccc2-3)c1	.	3.3%	0.4%	-4.2%
CCOc1ccc(C(=O)NCC(=O)OCC(=O)c2ccc3c(c2)-c2ccccc2C3)cc1	2.4	-8.9%	-16.0%	-4.8%
COc1cc(C(=O)NCC(c2ccc(F)cc2)N2CCOCC2)ccc1OCc1ccccc1Cl (centres undefined)	.	-3.8%	.	-0.4%
COc1ccc(-c2cc(C(=O)N3CCCCCC3)no2)cc1OC	.	1.9%	-69.3%	2.8%
CCn1ncc(Br)c1C(=O)Nc1ccc(-c2ccno2)cc1	.	-9.2%	-15.5%	-1.1%
Cc1nnsc1Sc1ccccc1	-3.3	16.0%	-4.3%	4.0%
CC1CCc2cccc3c2N1c1cc(C#N)c(C#N)cc1O3 (centres undefined)	-1.6	?	-12.8%	?
O=c1c(C(c2ccc(O)cc2)c2c(O)nc3n(c2=O)CCCS3)c(O)nc2n1CCCS2	-4.2	-6.4%	-1.6%	-0.1%
O=C(O)CSc1cn(Cc2ccccc2)c2ccccc12	.	1.7%	2.9%	-0.1%
Cc1ccc(O)c(NC(=O)CCC2CCCCC2)c1	-14.4	16.1%	-37.5%	-3.6%
Cc1c(C(=O)N2CCN(Cc3ccc4c(c3)OCO4)CC2)cccc1[N+](=O)[O-]	-4.6	-5.3%	-1.6%	-0.1%
COc1ccc(/C=C/C(=O)O)cc1S(=O)(=O)NCc1ccco1	1.7	1.8%	-0.1%	6.1%
O=C(/C=C/c1cccc(Cl)c1)OCc1cn2cc(Cl)ccc2n1	-11.5	0.8%	-2.6%	-0.7%
CC[C@@]1(O)C(=O)OCc2c1cc1n(c2=O)Cc2cc3c(CN(C)C)c(O)ccc3nc2-1	1.5	?	.	?
O=C(c1cc(COc2c(F)cccc2F)on1)N1CCCCCC1	.	-4.1%	-60.8%	-0.2%
CCC(c1nnnn1CC1CCCO1)N(CCN1CCOCC1)Cc1cc2cc(C)ccc2[nH]c1=O (centres undefined)	-5.7	-8.0%	0.0%	0.1%
N#Cc1cc2c(nc1SCC(=O)NCc1ccc3c(c1)OCO3)CCCCC2	4.8	1.7%	-1.3%	-1.0%
COC(=O)c1sccc1NC(=O)COc1ccc(Cl)cc1Cl	2.2	-0.1%	-0.8%	-1.8%
COCC(=O)N1CCC(Oc2ccc(C(=O)N3CCCCCC3)cc2)CC1	.	6.7%	-5.3%	-2.4%
O=C(Nc1cccc(O)c1)C(Cc1ccccc1)N1C(=O)c2cccc3cccc(c23)C1=O (centres undefined)	1.1	-5.5%	-11.6%	3.1%
CC(C)CNC(=O)c1ccccc1NC(=O)Nc1ccccc1	-8.2	0.2%	-6.7%	2.9%
COc1cccc(C(=O)OCC(=O)NCCNC(=O)COC(=O)c2cccc(OC)c2OC)c1OC	.	1.2%	-2.2%	-1.8%
(next part)
SMILES	GLA inh pH 4.5	Rango dissoc inh	miR-21 reporter	Rango-impB inh
CC(C)c1csc2nc3n(c(=O)c12)CCCCC3	6.0	9.8%	-25.9%	1.6%
Cc1ccc(NC(=O)CCN2CCC(C(N)=O)CC2)cc1	.	8.1%	-2.7%	1.8%
COc1ccc(C2=NS(=O)(=O)N(C)C(C(=O)NCc3ccccc3)=C2)cc1OC	.	-17.0%	-4.9%&-7.6%	?
O=S1(=O)c2ccccc2C(O)(c2ccccc2)c2ccccc21	.	6.6%	.	0.9%
CCOc1cc(/C=N/n2c(C)nc3ccccc3c2=O)ccc1O	.	-2.7%	2.4%	-1.4%
Cc1ccc(OCC(=O)Nc2ccc(S(=O)(=O)N3CCOCC3)cc2)c(Br)c1	.	16.7%	-0.5%	0.4%
CCCCNC(=O)[C@]1(C)CCC[C@@]2(C)C3CC[C@@]4(C)C[C@]3(CCC21)CC4=O (some centres undefined)	.	-3.2%	.	3.0%
CC1CCCC(NC(=O)/C=C/c2c(F)cccc2Cl)C1C (centres undefined)	.	-8.9%	.	0.8%
C/C(=N\NC(=O)c1cccnc1)c1cc(C)oc1C	6.2	-3.5%	-11.3%	6.7%
